FEN1 inhibitor – blocks human flap endonuclease 1. 390,000 tested, 0.35% active. Recombinant FEN1 flap cleavage, fluorescence, 15 min. Potency, µM (series often up to 114 µM), without a hit: at the highest dose activity change, negative = inhibition, actives largely listed as inhibitors; further: nearly all actives have a fitted effect of over 65% in size
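Read-out was taken twice, immediately and after 15 min, following addition of 50 nM substrate to 10 nM FEN1 that had sat with test compound for 15 min at room temperature. Curves came from a four-parameter Hill model.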
GCN5L2 inh – inhibitors of human GCN5L2 histone acetyltransferase; Q92830; 390,000 tested, 0.21% active; Potency, µM (doses to about 58.9 µM), inactives show top-dose activity change, negative = inhibition, hits mostly inhibitors; GCN5L2 HAT assay, ThioGlo1 CoA-SH fluorescence
Target sequence (Q92830 whole entry, looked up): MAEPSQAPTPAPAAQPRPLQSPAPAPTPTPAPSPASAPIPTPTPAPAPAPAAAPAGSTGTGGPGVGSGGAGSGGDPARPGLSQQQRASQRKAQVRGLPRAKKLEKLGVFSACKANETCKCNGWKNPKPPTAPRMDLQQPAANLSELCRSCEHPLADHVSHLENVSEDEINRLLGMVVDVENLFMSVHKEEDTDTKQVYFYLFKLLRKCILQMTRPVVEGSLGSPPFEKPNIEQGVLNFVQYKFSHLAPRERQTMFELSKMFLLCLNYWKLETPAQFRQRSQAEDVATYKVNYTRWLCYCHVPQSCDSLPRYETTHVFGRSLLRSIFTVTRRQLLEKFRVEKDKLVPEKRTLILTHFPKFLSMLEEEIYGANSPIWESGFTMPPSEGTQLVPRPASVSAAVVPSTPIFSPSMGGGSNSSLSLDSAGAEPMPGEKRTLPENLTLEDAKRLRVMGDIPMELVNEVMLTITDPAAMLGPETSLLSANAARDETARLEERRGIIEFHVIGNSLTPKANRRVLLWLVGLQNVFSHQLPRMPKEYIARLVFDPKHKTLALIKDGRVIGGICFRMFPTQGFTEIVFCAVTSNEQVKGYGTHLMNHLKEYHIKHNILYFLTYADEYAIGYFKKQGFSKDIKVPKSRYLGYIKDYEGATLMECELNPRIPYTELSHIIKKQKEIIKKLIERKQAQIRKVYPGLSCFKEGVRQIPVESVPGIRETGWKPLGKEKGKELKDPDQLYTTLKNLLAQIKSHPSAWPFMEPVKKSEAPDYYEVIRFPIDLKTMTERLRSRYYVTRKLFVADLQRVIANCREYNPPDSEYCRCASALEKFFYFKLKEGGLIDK
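GCN5L2 (20 nM) in 50mM HEPES pH 7.5, 0.1mM EDTA, 0.01% Tween-20 preincubated 15 min with compounds at room temperature. Reaction started with H3(1-25) 75uM, acetyl-CoA 70uM, ThioGlo1 50uM; CoA-thiol fluorescence (Ex340/Em540) read at 0 and 20 min.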
An asterisk follows results filed as active; ? = inconclusive; . = no result given. The call rests on the fitted dose curve; in most records, active means well fitted curve in the direction sought with a large enough effect; inconclusive means small, poorly fitted or top-dose-only effect, or another doubt; inactive means no such curve, though single readings can be large; an effect the other way counts as inactive or inconclusive. On the % scale 0 is the no-effect control and ±100 the full control effect; potency means the concentration at half of the fitted maximal effect. The list is partial, and most or all hits are left out here.

SMILES	FEN1 inhibitor	GCN5L2 inh
Cn1cc(-c2nnnn2-c2ccc(Cl)cc2)c(=O)c2ccccc21	-8%	0%
CC1(C)C(C=C(Cl)Cl)C1C(=O)N(Cc1ccc(Cl)cc1)C1CCS(=O)(=O)C1 (stereo not drawn)	12%	-6%
O=C(CC1C(=O)NCCN1Cc1ccccc1C(F)(F)F)NC1CCCC1 (stereo not drawn)	7%	3%
CC(C)=C1C2CCC1C1C(=O)N(CCc3ccccc3)C(=O)C21 (stereo not drawn)	-10%	1%
CC(C)CC(=O)NNC(=S)Nc1ccc(S(N)(=O)=O)cc1	2%	0%
COc1cc(/C=N/NC(=O)CCc2c(C)n[nH]c2C)ccc1O	-13%	7%
COc1ccc(S(=O)(=O)N2CCNC(=O)C2)cc1Br	6%	-2%
COC(=O)c1ccccc1NC(=O)CSc1nnc(-c2cccnc2)o1	-4%	-5%
CC(=O)CCn1c(=O)n(CCC(C)=O)c(=O)n(CCC(C)=O)c1=O	-1%	0%
CCOc1ccccc1NC(=O)/C(C#N)=C/c1c(C)nn(-c2ccc(F)cc2)c1Cl	4%	1%
COc1cccc(CNC(=O)CCC(=O)N2CC(C)Oc3ccccc32)c1OC (stereo not drawn)	-1%	?
CC1=CC(C)C2(CO)COC(c3ccccc3O)C1C2C (stereo not drawn)	-1%	-3%
CCCC(=O)NNC(=O)CCC(=O)Nc1ccccc1Cl	-2%	4%
O=C(CSCc1cccc(Cl)c1)N/N=C/c1ccc(OCC(=O)N2CCCCC2)cc1	11%	-10%
CN(C)S(=O)(=O)c1ccc(NC=O)cc1	-7%	-11%
CCNC(=S)N(CCc1c(C)[nH]c2ccc(C)cc12)Cc1cccnc1	-1%	-20%
CCCCn1c(SCC(=O)NC2CC2)nc2ccccc2c1=O	6%	-1%
CCOC(=O)C1CCN(C(=O)c2cccnc2Oc2ccccc2)CC1	2%	0%
O=C(NCCNC(=O)c1cc(Cl)ccc1Cl)c1cnccn1	17%	3%
Cc1cc(Nc2ccc(Br)cc2)nc(-c2ccccc2O)n1	4%	-4%
CC(=O)Nc1ccc(Nc2ccccc2)cc1	-10%	-8%
COC(CNC(=O)C(=O)Nc1cc2c3c(c1)CC(=O)N3CCC2)OC	12%	0%
CC(=O)NC(CCS(C)(=O)=O)C(=O)Nc1ccc2c(c1)OCCO2 (stereo not drawn)	1%	-2%
CN1C(=O)N(C)C2(c3ccccc3)N(C(C)(C)C)C(=O)NC12c1ccccc1 (stereo not drawn)	4%	3%
Cc1ccccc1N1CC(C(=O)Nc2ccc(S(=O)(=O)N3CCOCC3)cc2)CC1=O (stereo not drawn)	-3%	-4%
O=c1[nH]c2cc3c(cc2cc1C(c1nnnn1Cc1ccccc1)N1CCCCCC1)OCCO3 (stereo not drawn)	2%	-1%
COc1ccc(CNC(=O)CCCC2=NS(=O)(=O)c3ccccc3N2)cc1	17%	0%
CC(=O)Nc1ccc(S(=O)(=O)NCCc2cc3ccc(C)c(C)c3[nH]c2=O)cc1	-3%	-6%
CC(C)(C)c1ccc(OCCC(=O)NNC(=O)c2ccccc2)cc1	-1%	-7%
COc1ccc(OC)c(CN(CCCN2CCOCC2)S(=O)(=O)c2ccc(NC(C)=O)cc2)c1	-11%	-1%

Sorted by heavy-atom count (falling): 16 of the compounds above
SMILES	FEN1 inhibitor	GCN5L2 inh
O=c1[nH]c2cc3c(cc2cc1C(c1nnnn1Cc1ccccc1)N1CCCCCC1)OCCO3 (stereo not drawn)	2%	-1%
COc1ccc(OC)c(CN(CCCN2CCOCC2)S(=O)(=O)c2ccc(NC(C)=O)cc2)c1	-11%	-1%
Cc1ccccc1N1CC(C(=O)Nc2ccc(S(=O)(=O)N3CCOCC3)cc2)CC1=O (stereo not drawn)	-3%	-4%
CCOc1ccccc1NC(=O)/C(C#N)=C/c1c(C)nn(-c2ccc(F)cc2)c1Cl	4%	1%
COc1cccc(CNC(=O)CCC(=O)N2CC(C)Oc3ccccc32)c1OC (stereo not drawn)	-1%	?
CN1C(=O)N(C)C2(c3ccccc3)N(C(C)(C)C)C(=O)NC12c1ccccc1 (stereo not drawn)	4%	3%
O=C(CC1C(=O)NCCN1Cc1ccccc1C(F)(F)F)NC1CCCC1 (stereo not drawn)	7%	3%
CCNC(=S)N(CCc1c(C)[nH]c2ccc(C)cc12)Cc1cccnc1	-1%	-20%
CC(C)(C)c1ccc(OCCC(=O)NNC(=O)c2ccccc2)cc1	-1%	-7%
Cn1cc(-c2nnnn2-c2ccc(Cl)cc2)c(=O)c2ccccc21	-8%	0%
CC(C)=C1C2CCC1C1C(=O)N(CCc3ccccc3)C(=O)C21 (stereo not drawn)	-10%	1%
O=C(NCCNC(=O)c1cc(Cl)ccc1Cl)c1cnccn1	17%	3%
CC1=CC(C)C2(CO)COC(c3ccccc3O)C1C2C (stereo not drawn)	-1%	-3%
COc1ccc(S(=O)(=O)N2CCNC(=O)C2)cc1Br	6%	-2%
CC(=O)Nc1ccc(Nc2ccccc2)cc1	-10%	-8%
CN(C)S(=O)(=O)c1ccc(NC=O)cc1	-7%	-11%

Further structures
SMILES	FEN1 inhibitor	GCN5L2 inh
COc1ccc(CNC(=O)C2=C(C)C(=O)OC23CCC(C)CC3)cc1 (stereo not drawn)	-7%	-16%
CCCn1c(=O)n(C)c(=O)c2c(SC(C)C(=O)NCC3CCCO3)nc(CC(C)C)nc21 (stereo not drawn)	-17%	-4%
CC(=O)Cc1nsc(NC(=O)C2Cc3ccccc3C(=O)O2)n1 (stereo not drawn)	-8%	-6%
S=C(NCCc1ccccc1)N1CCOCC1	0%	-2%
COc1ccc(N2CCN(CCCn3c(=S)[nH]c4ncccc4c3=O)CC2)cc1	-12%	-3%
COC(=O)C1C(O)=CC(=O)CC1C (stereo not drawn)	6%	-1%
CCN(CC)c1ccc(CNc2nc3ccccc3n2CCN2CCOCC2)cc1	-5%	-6%
NC(=S)N/N=C/c1ccc(-c2cccc([N+](=O)[O-])c2)o1	0%	-15%
COCCn1c(SCC(=O)Nc2ccc3c(c2)OCCO3)nc2c(c1=O)SC(C)C2 (stereo not drawn)	14%	-1%
CCn1c2ccccc2c2cc(CNCCCN3CCOCC3)ccc21	13%	-2%
COCc1cc(C)n(CC(=O)NCC2CCCO2)c(=O)c1C#N (stereo not drawn)	-3%	-5%
O=S(=O)(Nc1nc(SCc2ccc(Cl)cc2)n[nH]1)c1ccccc1	-23%	-12%
CC/C(O)=C(/C#N)c1nnc2n1CCCCC2	-8%	-4%
CCN1C(=O)[C@H]2[C@@H](c3ccc(SC4CCCCC4)c(OC)c3)N3CCCC[C@@]3(C(=O)OC)[C@H]2C1=O	-19%	-18%
O=C1N/C(=C/c2ccc(Br)cc2)C(O)=C1C=NCc1ccccc1	-4%	-1%
O=C(CNC(=O)c1ccc(Br)o1)NNC(=O)c1ccccc1O	20%	-17%
COc1ccc(-c2nc(-n3c(C)c(C(C)=O)c(C(C)=O)c3C)sc2C)cc1OC	-9%	-4%
O=C(N/N=C/C=C/c1ccccc1)c1ccccn1	13%	-4%
Cc1nn(C)c(C)c1C(=O)NN	0%	3%
O=C(NCCCc1nc2ccccc2[nH]1)c1ccc(F)cc1	5%	2%
O=C1CCCC2=C1C(c1cccc(O)c1)c1c(ccc3ncccc13)N2 (stereo not drawn)	-7%	2%
COc1ccc(/C=N/Nc2nc(-c3ccc(C)cc3)c(NC(C)=O)s2)cc1OC	-2%	-9%
C=CCOc1ccc(C=Nc2ccc(OC)cc2)c(O)c1	-10%	-5%
CCNc1nc(SC(C)C(=O)Nc2ccccc2)nc(N(C)C)n1 (stereo not drawn)	-21%	-5%
CCCCCCCCCC(=O)Nc1cccnc1	.	0%
OC(COCCC12CC3CC(CC(C3)C1)C2)CN1CCCCC1 (stereo not drawn)	10%	0%
O=C(O)/C=C/c1ccc2c(-c3ccccc3)onc2c1	-7%	-12%
CCCn1c(SCC(=O)N2CCN(C(=O)c3ccco3)CC2)nc2ccccc2c1=O	-13%	-4%
O=C(Nc1ccccc1Cl)Oc1ccc2ccccc2c1	.	2%
COc1ccc(NC(=S)NCc2ccccn2)cc1OC	17%	0%
COc1cccc(N2CCN(CC(=O)Nc3nnc(-c4ccccc4)s3)CC2)c1	-11%	-6%
CCOP(=O)(OCC)C(C#N)=C1SCN(c2ccc(Cl)cc2)CS1	-3%	-25%
CC1CCN(c2c([N+](=O)[O-])c(=O)oc3ccccc23)CC1	7%	-5%
O=C(NCCc1cccc(Cl)c1)C1CCC(=O)N(Cc2ccc(Cl)cc2)C1 (stereo not drawn)	11%	-17%
Cc1ccc(NC(=O)C2CCN(S(=O)(=O)c3ccc4c(c3)OCCCO4)CC2)nc1	-4%	0%
O=C1CC(c2ccncc2)c2cc3c(cc2N1)OCCO3 (stereo not drawn)	-6%	-10%
O=C1C(=O)N(CCO)C(c2ccccc2)/C1=C(\O)c1ccccc1 (stereo not drawn)	11%	-4%
COc1cc(/C=N\NC(=O)C2COc3ccccc3O2)cc(OC)c1O (stereo not drawn)	-5%	0%
COC(=O)N/N=C(\C)c1ccc(OC(F)F)cc1OC(F)F	-1%	1%
CCCCCCC(=O)Nc1ccc(C(=O)N/N=C/c2cccnc2)cc1	3%	-12%
N#CCC(=N)N1CCN(c2ccccc2)CC1	5%	-16%
Cc1ccc(S(=O)(=O)N2CCOC2CNC(=O)C(=O)NCCc2ccccc2)cc1 (stereo not drawn)	26%	-2%
O=C(Cn1cnc(Cl)c1Cl)c1ccccc1	-9%	1%
Cc1ccc(-c2cc(C(=O)N3CCCCCC3)no2)cc1	-3%	-2%
CNC(=O)NC(=O)CSc1nc(-c2cccs2)c(C#N)c(=O)[nH]1	-6%	-4%
CC(C)Oc1ccc(C(=O)N2CCCC2C(=O)O)cc1 (stereo not drawn)	6%	-2%
CCN(CCn1cccn1)C(=O)c1cc(COc2cccc3cccnc23)on1	15%	0%
Nc1oc2ccccc2c1C(=O)Cc1ccccc1O[C@@H]1O[C@H](CO)[C@@H](O)[C@H](O)[C@H]1O	-5%	-10%
O=C(NCC1CCCO1)c1ccc[nH]1 (stereo not drawn)	-13%	-6%
O=C(c1ccccc1)N1CCN(C(=O)c2ccccc2Br)CC1	-5%	-5%
Cc1cccn2c(=O)c3cc(C#N)c(=O)n(Cc4cccnc4)c3nc12	-17%	-3%
Cc1nnc(NC(=O)CCn2c(=O)oc3ccccc32)s1	9%	-4%
COc1ccc(/C=C2\N=C(SC)NC2=O)cc1	11%	.
CCOc1ccc2nc(NC(=O)C3CCN(C(=O)c4ccco4)CC3)sc2c1	13%	-2%
COCCNC(=O)COC(=O)c1ccc(OCC(=O)Nc2ccccc2OC)c(OC)c1	19%	-9%
CC1=C(C)SC(=C(C#N)c2nnc(N3CCOCC3)n2-c2ccccc2)S1	5%	-4%
CC[C@H](C)/C=C(C)/C=C/C(=O)Cc1cc(O)c(C)c(O)c1C=O	-23%	-2%
CC(C)Cc1nc2sc3c(=O)n(N)cnc3c2c2c1COC(C)(C)C2	6%	26%
Cc1cc(C(F)(F)F)nn1CC(=O)N(C)c1ccccc1	-8%	1%
COc1ccc(N(Cc2cc3ccccc3[nH]c2=O)S(=O)(=O)c2ccc(OC)cc2)cc1	-15%	-5%

Sorted by value in FEN1 inhibitor (low to high): 4 of the compounds above
SMILES	FEN1 inhibitor	GCN5L2 inh
CC(=O)Nc1ccc(Nc2ccccc2)cc1	-10%	-8%
CC(=O)CCn1c(=O)n(CCC(C)=O)c(=O)n(CCC(C)=O)c1=O	-1%	0%
CC(C)CC(=O)NNC(=S)Nc1ccc(S(N)(=O)=O)cc1	2%	0%
O=C(CNC(=O)c1ccc(Br)o1)NNC(=O)c1ccccc1O	20%	-17%

Carrying on:
SMILES	FEN1 inhibitor	GCN5L2 inh
CCOC(=O)c1ccc(NC(=O)CC2SC(=NC)N(C)C2=O)cc1 (stereo not drawn)	-3%	0%
CCc1ccc(Nc2cnn(C34CC5CC(CC(CC(=O)O)(C5)C3)C4)c(=O)c2Cl)cc1	-4%	-4%
CC1CCN(CCC(=O)N2CCCc3c2c(=O)oc2ccc(O)cc32)CC1	8%	-9%
COc1cccc(NC(=O)CN(C)C(=O)CN2C(=O)NC(C)(c3ccc4ccccc4c3)C2=O)c1 (stereo not drawn)	-7%	-19%
Clc1ccc(OCCCc2nc(-c3cccnc3)no2)c(Cl)c1	?	-11%
CCC(C)c1ccc(OCC(=O)Nc2cccc(C(=O)Nc3ccc(C(=O)O)cc3)c2)cc1 (stereo not drawn)	-10%	2%
COCCn1c(C(F)(F)F)ccc(NC(=O)c2ccccc2)c1=O	11%	-3%
COCCNC(=O)C(c1ccc(C)o1)N(C(=O)c1snc(C(N)=O)c1N)c1cc(C)cc(C)c1 (stereo not drawn)	4%	-5%
C/C=C(\C)CN1CCN(c2ccccc2)CC1	-1%	32µM*
Cn1nnc2cc(C(=O)N3CCN(c4ccccc4)CC3)ccc21	1%	2%
CNS(=O)(=O)c1cccc(C(=O)OCC(=O)c2cc(C)n(-c3ccc4c(c3)OCO4)c2C)c1	12%	-5%
CC(=O)Nc1ccc(S(=O)(=O)N2CCN(c3ccc(C)c(Cl)c3)CC2)cc1	15%	-12%
O=C(NC1CCCCCC1)c1c(O)nc2sccn2c1=O	7%	-4%
COc1ccc(NC(=O)c2ccco2)cc1NC(=O)c1cc2ccccc2o1	-1%	-18%

Screening results as filed in PubChem.
